A1 inhib: inhibitors of A1; MEF A1-2A-BIM cells, caspase-Glo luminescence, 3 h; percent of clofoctol signal, DMSO as zero; 21,000 compounds, 0.51% hits; caspase activation, % (concentration not given with the values); AID 2241;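 active = most replicate scores above 10, or exactly half above 10 with mean activity above 10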;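 note: effector caspase 3 and 7 activity cleaving a DEVD luciferin substrate; 50 nL library stock added to about 30 µL; numbers are from one replicate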
BJeLR viab HTS: BJeLR cell viability reduction; BJeLR fibroblasts viability, CellTiterGlo ATP luminescence, 48 h; HRASV12, hTERT and SV40 LT/ST transformed; viability loss activity score, % (concentration not given with the values); 30,000 compounds, 0.64% hits; in the data active = viability loss activity score above about 50%; about a fifth of its hits are not listed in these tables;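 note: higher score means fewer live cells and less ATP luminescence; stock transfer was 50 or 100 nL into about 30 µL; 0% = vehicle wells and 100% = a reference killing control; one replicate is shown; the record names a cut of 85%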
Active calls of the source: *; . = no result given. Only part of the results is shown, so the mix of outcomes need not match the whole.

SMILES	A1 inhib	BJeLR viab HTS
COc1ccc(N2CCN(c3c(S(=O)(=O)c4ccccc4)cnc4ccc(Cl)cc34)CC2)cc1	0.3	-3.2
CCOC(=O)CSc1nc2cccnc2s1	-0.8	-3.5
COc1ccc(S(=O)(=O)Nc2ccc3c(c2)C(=O)N([C@H](C)CO)C[C@@H](C)[C@@H](CN(C)S(=O)(=O)c2ccc(Cl)cc2)O3)cc1	-0.8	0.4
COc1ccc(Nc2cc(C(F)(F)F)ccc2Cl)c(C(=O)O)c1	0.4	-4.6
COc1ccc(S(=O)(=O)Nc2ccc3c(c2)C(=O)N([C@H](C)CO)C[C@@H](C)[C@H](CN(C)C(=O)Nc2c(C)noc2C)O3)cc1	0.2	0.3
COc1ccc(S(=O)(=O)Nc2cccc3c2O[C@@H](CN(C)C(=O)Nc2ccccc2)[C@@H](C)CN([C@H](C)CO)C3=O)cc1	.	2.5
Cc1nc(SC2CCCCN(C(=O)c3ccc(Cl)cc3)C2=O)c2c3c(sc2n1)CCCC3 (centres undefined)	-0.4	3.0
CCN(CCS(=O)(=O)c1ccccc1)S(=O)(=O)c1ccc(C)cc1	0.2	2.2
CC(C)c1ccc(NN2C(=O)CC(c3ccccc3)C2=O)cc1 (centres undefined)	-0.1	-8.5
COc1ccc(NC(=O)Nc2ccc3c(c2)C(=O)N([C@@H](C)CO)C[C@@H](C)[C@H](CN(C)C(=O)Nc2ccc4c(c2)OCO4)O3)cc1	-0.6	2.1
CC1(C)CC(NC(=O)c2ccc(-n3cnnn3)cc2)CC(C)(C)N1	0.9	3.1
COc1ccc(C(=O)N2CCN(c3ccc(N4CCOCC4)nn3)CC2)cc1	.	0.4
COc1ccc(CN(C)C[C@H]2Oc3ccc(NC(=O)CCCN(C)C)cc3C(=O)N([C@H](C)CO)C[C@H]2C)cc1	1.1	3.3
Cc1cc(C)c2c(n1)sc1c(=O)n(NC(=O)Nc3ccccc3)c(C)nc12	0.5	0.3
CC(=O)Nc1cc(C(=O)NCCc2ccccc2)ccc1Sc1ccc(Cl)cc1	1.0	-4.8
CC1=CC(C)(C)N(C(=O)c2ccccc2)c2ccc(OC(=O)c3ccccc3)cc21	-0.3	0.9
C[C@@H]1CN([C@H](C)CO)C(=O)c2cc(NS(=O)(=O)c3cn(C)cn3)ccc2O[C@H]1CN(C)Cc1ccc2c(c1)OCO2	0.3	-6.1
O=C(NCN1CCCCC1)C12CC3CC(CC(C3)C1)C2	0.3	1.2
C[C@@H]1CN([C@H](C)CO)C(=O)c2cccc(NS(=O)(=O)c3ccc(F)cc3)c2O[C@H]1CN(C)Cc1ccc(Cl)c(Cl)c1	.	-2.0
COCCn1c(SCC(=O)NCc2ccccc2Cl)nc2cc(C(=O)OC)ccc2c1=O	-0.4	2.2
Cc1noc(C)c1S(=O)(=O)N(C)C[C@H]1Oc2c(NC(=O)c3ccc(-c4nccs4)cc3)cccc2C(=O)N([C@H](C)CO)C[C@@H]1C	.	-3.7
O=C(/C=C/c1ccc2c(c1)OCO2)Nc1ccc(-n2nncc2-c2ccccc2)cc1	1.0	-2.4
CCn1cc(CCCC(=O)NC2CCC(C)CC2)c2ccccc21 (centres undefined)	0.1	-1.7
Cc1noc(C)c1S(=O)(=O)Nc1cccc2c1O[C@@H](CN(C)C(=O)NC1CCCCC1)[C@@H](C)CN([C@@H](C)CO)C2=O	.	-1.2
C[C@H](CO)N1C[C@H](C)[C@@H](CN(C)S(=O)(=O)c2cccs2)Oc2c(NC(=O)c3ccc(-c4nccs4)cc3)cccc2C1=O	.	-1.3

Single values from the results shown:
Under BJeLR viab HTS, Cc1noc(C)c1S(=O)(=O)Nc1cccc2c1O[C@@H](CN(C)C(=O)NC1CCCCC1)[C@@H](C)CN([C@@H](C)CO)C2=O has the entry -1.2
Under BJeLR viab HTS, COc1ccc(S(=O)(=O)Nc2cccc3c2O[C@@H](CN(C)C(=O)Nc2ccccc2)[C@@H](C)CN([C@H](C)CO)C3=O)cc1 has the entry 2.5
Under A1 inhib, CC1=CC(C)(C)N(C(=O)c2ccccc2)c2ccc(OC(=O)c3ccccc3)cc21 has the entry -0.3
Under A1 inhib, Cc1nc(SC2CCCCN(C(=O)c3ccc(Cl)cc3)C2=O)c2c3c(sc2n1)CCCC3 (centres undefined) has the entry -0.4
Under A1 inhib, COCCn1c(SCC(=O)NCc2ccccc2Cl)nc2cc(C(=O)OC)ccc2c1=O has the entry -0.4
Under BJeLR viab HTS, COc1ccc(CN(C)C[C@H]2Oc3ccc(NC(=O)CCCN(C)C)cc3C(=O)N([C@H](C)CO)C[C@H]2C)cc1 has the entry 3.3
Under BJeLR viab HTS, C[C@@H]1CN([C@H](C)CO)C(=O)c2cccc(NS(=O)(=O)c3ccc(F)cc3)c2O[C@H]1CN(C)Cc1ccc(Cl)c(Cl)c1 has the entry -2.0

Continuation:
SMILES	A1 inhib	BJeLR viab HTS
COc1ccc(C2=NOC(C(=O)N3CCCC3)C2)cc1 (centres undefined)	.	2.1
C[C@@H]1CN([C@H](C)CO)C(=O)c2cccc(N(C)C)c2O[C@H]1CN(C)S(=O)(=O)c1ccccc1	.	-5.2
C[C@H](CO)N1C[C@H](C)[C@H](CN(C)S(=O)(=O)c2ccc(F)cc2)Oc2ccc(NC(=O)CCCCCC(=O)Nc3ccccc3N)cc2C1=O	.	-9.4
C[C@@H]1CN([C@H](C)CO)C(=O)c2cc(NC(=O)Nc3ccc(F)cc3)ccc2O[C@@H]1CN(C)S(=O)(=O)c1ccc(Cl)cc1	-0.7	6.7
C[C@@H]1CN([C@@H](C)CO)C(=O)c2cccc(NC(=O)Nc3ccc(F)cc3)c2O[C@H]1CN(C)S(=O)(=O)c1ccccc1	.	-8.6
C[C@@H]1CN([C@@H](C)CO)C(=O)c2cc(NC(=O)Nc3ccc(C(F)(F)F)cc3)ccc2O[C@H]1CN(C)S(=O)(=O)c1ccc(F)cc1	-0.2	-0.5
COc1ccc(/C=C2\C(=O)c3ccccc3OC2c2ccccc2)cc1 (centres undefined)	-0.5	25
C[C@@H]1CN([C@@H](C)CO)C(=O)c2cccc(NC(=O)C3CCOCC3)c2O[C@@H]1CN(C)Cc1ccc(C(=O)O)cc1	.	3.0
CC(C(=O)c1ccccc1)[n+]1cccc(Br)c1 (centres undefined)	-0.3	1.4
C/C=C(\C(C)=N\O)c1ccccc1	-0.1	-1.1
CCOc1ccc2nc(N3CCCCC3)sc2c1	.	14
C[C@H](CO)N1C[C@H](C)[C@@H](CN(C)C)Oc2c(NC(=O)Nc3ccc(F)cc3)cccc2C1=O	.	4.2
CSc1nc(C)cc(NC(N)=O)n1	0.2	4.7
C[C@@H]1CN([C@H](C)CO)C(=O)c2cc(NC(=O)CCN3CCOCC3)ccc2O[C@@H]1CN(C)Cc1ccc2c(c1)OCO2	0.2	2.1
Cc1ccc(S(=O)(=O)N(C)C[C@@H]2Oc3ccc(NC(=O)Cc4ccccc4)cc3C(=O)N([C@H](C)CO)C[C@H]2C)cc1	-0.3	1.3
C[C@@H]1CN([C@@H](C)CO)C(=O)c2cccc(NS(=O)(=O)c3ccccc3)c2O[C@@H]1CN(C)Cc1ccc(Oc2ccccc2)cc1	.	-0.6
CCCSc1nc(C)c(-c2csc(C(C#N)=C3CCCC3)n2)cc1C#N	-1.1	-3.4
C[C@@H]1CN([C@@H](C)CO)C(=O)c2cccc(NS(=O)(=O)c3cn(C)cn3)c2O[C@@H]1CN(C)C(=O)Nc1ccc(C(F)(F)F)cc1	.	-4.4
OCCN1N=C2c3ccccc3CCC2C1c1ccccc1Cl (centres undefined)	0.2	6.9
COc1ccc(-c2cc(CC(C)C)nc(N)c2C#N)cc1	-1.0	-5.5
C[C@@H]1CN([C@@H](C)CO)C(=O)c2cc(NC(=O)Nc3ccc4c(c3)OCO4)ccc2O[C@H]1CN(C)C(=O)NC1CCCCC1	-0.2	-1.4
C[C@H](CO)N1C[C@H](C)[C@H](CN(C)Cc2ccc(C(=O)O)cc2)Oc2c(NC(=O)C3CCOCC3)cccc2C1=O	.	-2.2
C[C@H](CO)N1C[C@H](C)[C@H](CN(C)CC2CCCCC2)Oc2ccc(NC(=O)NC3CCCCC3)cc2C1=O	-0.4	-0.2
CC(C)NC(=O)Nc1ccc2c(c1)C(=O)N([C@@H](C)CO)C[C@H](C)[C@@H](CN(C)S(=O)(=O)c1cn(C)cn1)O2	-1.1	0.2
C[C@@H]1CN([C@@H](C)CO)C(=O)c2cc(NC(=O)CCC(F)(F)F)ccc2O[C@H]1CN(C)S(=O)(=O)c1cn(C)cn1	-0.6	-1.7

Some of the entries above in a different format.
C[C@H](CO)N1C[C@H](C)[C@H](CN(C)S(=O)(=O)c2ccc(F)cc2)Oc2ccc(NC(=O)CCCCCC(=O)Nc3ccccc3N)cc2C1=O
  A1 inhib = .	BJeLR viab HTS = -9.4

CCCSc1nc(C)c(-c2csc(C(C#N)=C3CCCC3)n2)cc1C#N
  A1 inhib = -1.1	BJeLR viab HTS = -3.4

Continuation.
SMILES	A1 inhib	BJeLR viab HTS
Cc1c(Cl)cccc1NC(=O)N1CC(C)Sc2ccccc21 (centres undefined)	1.4	4.8
Cc1ccc(C(=O)OC(C)CN2C(C)CCCC2C)cc1 (centres undefined)	0.4	4.7
COc1ccc(NC(=O)Nc2cccc3c2O[C@@H](CN(C)C(=O)NC(C)C)[C@@H](C)CN([C@@H](C)CO)C3=O)cc1	.	-2.5
COc1cccc(C2=NOC(C(=O)NCC3CCCO3)C2)c1 (centres undefined)	.	3.5
C[C@@H]1CN([C@H](C)CO)C(=O)c2cccc(NS(=O)(=O)c3ccc(Cl)cc3)c2O[C@H]1CN(C)C(=O)Nc1ccc2c(c1)OCO2	.	2.5
C[C@@H]1CN([C@@H](C)CO)C(=O)c2cccc(NS(=O)(=O)c3ccccc3)c2O[C@H]1CN(C)Cc1ccc(C(=O)O)cc1	.	0.5
COC(=O)c1cc(NC2c3ccccc3C(=O)N2c2ccccn2)cc(C(=O)OC)c1 (centres undefined)	.	2.2
O=C(NCC[n+]1ccc2ccccc2c1)c1ccccc1	0.8	-1.2
O=C(OCCNc1c(F)c(F)nc(F)c1F)c1ccccc1	-0.7	-0.7
CS(=O)(=O)N(Cc1cccc(F)c1)n1c(SCc2cccc(F)c2)nc2ccccc2c1=O	-0.3	1.6
COc1cc2c(cc1OC)C1Cc3ccc(OC)c(OC)c3CN1CC2 (centres undefined)	-0.3	-0.8
C[C@H](CO)N1C[C@H](C)[C@H](CN(C)S(=O)(=O)c2cn(C)cn2)Oc2c(NS(C)(=O)=O)cccc2C1=O	.	1.3
Cc1noc(C)c1NC(=O)Nc1cccc2c1O[C@@H](CN(C)S(=O)(=O)c1cccs1)[C@H](C)CN([C@H](C)CO)C2=O	.	0.7
COc1ccc(NC(=O)Nc2cccc3c2O[C@@H](CN(C)C(=O)Nc2ccc(OC)cc2)[C@@H](C)CN([C@@H](C)CO)C3=O)cc1	.	-1.8
Cc1noc(C)c1NC(=O)N(C)C[C@H]1Oc2c(NS(=O)(=O)c3ccc(F)cc3)cccc2C(=O)N([C@H](C)CO)C[C@@H]1C	.	-0.4
O=C(COc1ccc(Cl)cc1)N1CCN(Cc2ccc3c(c2)OCO3)CC1	-0.5	2.3
C[C@@H]1CN([C@H](C)CO)C(=O)c2cc(NC(=O)Cc3cn(C)c4ccccc34)ccc2O[C@H]1CN(C)C(=O)Nc1ccccc1	-0.7	1.7
O=C1CC2(CCCC2)CC(=O)N1CCNCC1COc2ccccc2O1 (centres undefined)	-0.5	-3.9
C[C@H](CO)N1C[C@H](C)[C@H](CN(C)C(=O)Nc2ccc3c(c2)OCO3)Oc2ccc(NS(=O)(=O)c3ccc(F)cc3)cc2C1=O	-0.6	-0.8
COc1ccc(S(=O)(=O)Nc2cccc3c2O[C@@H](CN(C)S(=O)(=O)c2ccccc2)[C@H](C)CN([C@H](C)CO)C3=O)cc1	.	0.2
O=C(Nc1nccs1)c1cccc(Cl)c1	-6.9	-1.1
COc1ccc2[nH]c3c(=O)n(CC(=O)NCCc4ccc(OC)c(OC)c4)c(=S)[nH]c3c2c1	0.2	0.2
COC(=O)CNC(=O)c1cn(-c2ccc(C)c(C)c2)c(=O)c2ccccc12	-0.5	-0.6
CC(C)NC(=O)N(C)C[C@H]1Oc2c(NC(=O)NC3CCCCC3)cccc2C(=O)N([C@H](C)CO)C[C@H]1C	.	-3.7
COc1ccc(Oc2cc(C(F)(F)F)nc3cc(C(C)(C)C)nn23)cc1	1.1	-2.4
SMILES	A1 inhib	BJeLR viab HTS
C[C@H]1CN([C@@H](C)CO)C(=O)c2cc(NC(=O)CCN3CCOCC3)ccc2O[C@@H]1CN(C)S(=O)(=O)c1cn(C)cn1	-0.1	-1.1
CC1(C)CC(=O)C2=C(C1)N(CCN1CCOCC1)C1=C(C(=O)CC(C)(C)C1)C2c1cccc(Cl)c1	0.0	0.8
O=C(CCOc1ccccc1)NCc1ccco1	0.8	-5.7
C[C@@H]1CN([C@@H](C)CO)C(=O)c2cc(NC(=O)CCCN(C)C)ccc2O[C@@H]1CN(C)C(=O)Nc1cccc2ccccc12	1.3	-1.4
C[C@H]1CN([C@@H](C)CO)C(=O)c2cc(NC(=O)CCN3CCOCC3)ccc2O[C@@H]1CN(C)C(=O)Nc1cccc2ccccc12	0.5	6.5
COc1ccc(C(=O)N2CC(C)N(C(=O)c3ccc(OC)c(OC)c3)CC2C)cc1OC (centres undefined)	0.6	1.0
CCc1ccc(OCC(=O)Nc2sc3c(c2C(=O)OC)CCCC3)cc1	-0.1	-2.8
Cc1ccc(C)c(N2CCN(C(=O)CN3CC(c4ccccc4)CC3=O)CC2)c1 (centres undefined)	.	0.1
CCOC(=O)C1CCCN(C(=O)c2ccc3c(c2)NC(=O)c2ccccc2S3)C1 (centres undefined)	0.8	4.5
C[C@@H]1CN([C@@H](C)CO)C(=O)c2cc(NC(=O)C3CC3)ccc2O[C@@H]1CN(C)S(=O)(=O)c1cccs1	-0.6	-1.2
Cc1ccc(CNC(=O)c2cccc(Nc3nc4ccccc4n4cnnc34)c2)cc1	.	7.5
